Assay outcomes deposited in PubChem by National Center for Advancing Translational Sciences (NCATS).
Marburg entry inh = blocks Marburg virus binding to or entry into cells; Marburg virus pseudotyped entry inhibition, cell reporter; control for the full effect not named in the record; about a third of the inactives were read at about 46 µM; Potency, µM (titrated, usually from 37.8 µM), for the others: top-dose activity change, negative = inhibition, most hits filed as inhibitors; 300,000 tested, 1.8% active; active = well fitted inhibition curve with a large enough effect; inconclusive = small, poorly fitted or top-dose-only effect, or effect the other way; inactive = flat fitted curve, though single readings scatter; tested in HEK293 cells; about a fifth of its hits are not listed in these tables; also: % is scaled to controls: 0 for no effect and ±100 for the full control effect; luciferase read-out
NS1 function inh = inhibitors of influenza NS1 protein function | Potency, µM (series often up to 46.1 µM), inactives show top-dose activity, positive = more growth | 270,000 tested, 0.4% active | S. cerevisiae slowed by influenza A NS1, growth recovery by OD600; also: actives are rising curves; nearly all actives have a fitted effect of over 50% in size
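A cell-based growth assay was used: compounds that relieve NS1-induced slow growth of budding yeast raise OD600. Assay medium was yeast nitrogen base with ammonium sulphate and -URA supplement, pH 6.0, with 2% galactose.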
Lassa entry inh = Lassa virus entry inhibition. Lassa virus pseudotype entry inhibition, cell reporter; control for the full effect not named in the record. Potency, µM (titrated, usually from 37.9 µM), without a hit: top-dose activity change, negative = inhibition, usual class: inhibitors. 300,000 tested, 1.2% active. AID 540256; active means well fitted inhibition curve with a large enough effect; inconclusive means small, poorly fitted or top-dose-only effect, or effect the other way; inactive means flat fitted curve, though single readings scatter; tested in HEK293 cells; also: % is scaled to controls: 0 for no effect and ±100 for the full control effect; nearly all actives have a fitted effect of over 50% in size; luciferase read-out
StopGo reporter = lowers the luciferase signal of an FMDV 2A StopGo reporter; human cells with a luciferase reporter of 2A StopGo recoding; control for the full effect not named in the record; Potency, µM (highest dose often 57.9 µM), without a hit: at the highest dose signal change, negative = less light; 410,000 tested, 1.2% active; AID 1159524; active = well fitted falling curve with a large enough effect; inconclusive = small, poorly fitted or top-dose-only effect; inactive = no such curve, though single readings can be large or run the other way; tested in HEK293T cells; also: % is scaled to controls: 0 for no effect and ±100 for the full control effect; nearly all actives have a fitted effect of over 45% in size; luciferase light after 4 h
Cruzain noTriton = blocks cruzain activity in detergent-free assay. P25779. 200,000 tested, 2.3% active. purified cruzain, Z-FR-AMC fluorescence, no detergent. Potency, µM, inactives show max response, negative = inhibition, most hits filed as inhibitors; active = well fitted curve in the direction sought with a large enough effect; inconclusive = small, poorly fitted or top-dose-only effect, or another doubt; inactive = no such curve, though single readings can be large; an effect the other way counts as inactive or inconclusive;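 also: plate controls were enzyme without inhibitor for no effect and buffer without enzyme for full effect; nearly all actives have a fitted effect of over 40% in size; top concentration of the series not given in the record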
Target sequence (P25779 123-467 limits assumed): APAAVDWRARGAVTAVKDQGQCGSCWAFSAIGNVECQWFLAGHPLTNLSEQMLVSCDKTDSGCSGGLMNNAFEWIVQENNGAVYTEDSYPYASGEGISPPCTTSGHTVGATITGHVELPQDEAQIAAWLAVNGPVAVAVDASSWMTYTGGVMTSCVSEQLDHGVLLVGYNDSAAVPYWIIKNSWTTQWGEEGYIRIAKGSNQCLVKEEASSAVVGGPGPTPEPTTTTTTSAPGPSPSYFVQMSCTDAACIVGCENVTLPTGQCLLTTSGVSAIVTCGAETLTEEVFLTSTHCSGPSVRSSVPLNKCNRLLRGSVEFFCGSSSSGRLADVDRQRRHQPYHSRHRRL
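Purified cruzain at 1.5 nM, pre-incubated 15 min with compound at room temperature in 100 mM sodium acetate pH 5.5, 5 mM DTT, 0.00005% Triton X-100. Reaction started with 2 uM Z-FR-AMC; AMC fluorescence increase over 60 s gives rate.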
SARS PLP yeast = SARS-CoV PLP inhibition in yeast | S. cerevisiae expressing SARS-CoV PLpro, growth rescue; control for the full effect not named in the record | 330,000 tested, 0.19% active | Potency, µM (top dose mostly 32.9 µM), inactives show at the top dose activity, positive = growth rescue | AID 485353; also: 0% is about no effect; nearly all actives have a fitted effect of over 55% in size; growth read by luminescence after 48 h
Cruzain Triton = blocks cruzain activity in presence of Triton detergent. P25779. purified cruzain, Z-FR-AMC fluorescence, 0.01% Triton. Potency, µM, for inactives: max response, negative = inhibition, hits mostly inhibitors. 200,000 tested, 0.43% active. AID 1478; active = well fitted curve in the direction sought with a large enough effect; inconclusive = small, poorly fitted or top-dose-only effect, or another doubt; inactive = no such curve, though single readings can be large; an effect the other way counts as inactive or inconclusive;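 also: plate controls were neutral wells for no effect and buffer without enzyme for full effect; nearly all actives have a fitted effect of over 40% in size; top concentration of the series not given in the record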
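Detergent-containing arm of a paired screen for aggregation-based inhibition: 0.01% Triton X-100 present. Cruzain at 1.5 nM cleaved 2 uM Z-FR-AMC at pH 5.5 with 5 mM DTT; AMC fluorescence gain over 60 s measured activity.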
RE007 growth inh = less growth of the S. pombe RE007 Vpr strain; S. pombe RE007 Vpr strain, BacTiter-Glo ATP luminescence, 24 h; control for the full effect not named in the record; Potency, µM (titrated, usually from 92.2 µM), without a hit: at the top dose activity change, negative = less growth; 360,000 tested, 0.21% active; AID 651644; active = well fitted falling curve with a large enough effect; inconclusive = small, poorly fitted or top-dose-only effect; inactive = no such curve, though single readings can be large or run the other way;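 also: % is scaled to controls: 0 for no effect and ±100 for the full control effect; nearly all actives have a fitted effect of over 50% in size; the assay follows cell death caused by Vpr and the record does not say whether a fall means rescue or toxicity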
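Fission yeast RE007 carrying one integrated HIV-1 vpr copy, seeded at OD 0.01 in PMG+AL medium with 23 nL pinned compound. Grown 24 h at 30 degrees; viability read by BacTiter-Glo luminescence after 5 min.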
* hit, by the source's call; ? = inconclusive; · = no result given; & = joins results of further samples; [ ] = another dose, or the depositor's remark. Unless noted, calls follow the shape of the dose curve; as a rule, active means well fitted rising curve with a large enough effect; inconclusive means small, poorly fitted or top-dose-only effect; inactive means no such curve, though single readings can be large or run the other way. Potency is read from the fitted curve at half-maximal effect.

SMILES | Marburg entry inh | NS1 function inh | Lassa entry inh | StopGo reporter | Cruzain noTriton | SARS PLP yeast | Cruzain Triton | RE007 growth inh
CCOC(=O)c1sc(NC(=S)NC(=O)c2ccc(OC)cc2)nc1C | 8% | -14% | -12% | -8% | · | 0% | · | -2%
CCC(=O)Nc1nnc(-c2ccccn2)o1 | ? | 0% | 12% | -1% | 8% | 11% | -1.1% | 13%
COc1ccc(Nc2ccc3cc(S(=O)(=O)N4CCCC4)ccc3n2)cc1OC | · | · | -20%[46.1 µM] | -29% | -13% | · | -7.3% | ·
COc1ccc(OC)c(S(=O)(=O)Nc2c(C)cccc2C)c1 | 1%[46.1 µM] | 3% | -37%[46.1 µM] | 13% | · | 0% | · | 4%
Cc1nnc(NNS(=O)(=O)c2ccc(Cl)cc2)[nH]c1=O | · | 0% | · | -14% | · | -1% | · | 3%
Cc1ccc(NC(=O)CCC(=O)NNC(=O)COc2cccc3ccccc23)c(C)c1 | -8% | 4% | 7% | · | ? | -1% | 1.7% | 1%
Cc1c(Cl)cccc1-n1ncc(C(=O)N2CCN(C)CC2)c1C1CCN(C(=O)OC(C)(C)C)CC1 | · | · | ? | -10% | 6% | · | 1.1% | ·
CCCCNC(=O)CCC(=O)NNc1nc2ccccc2c2nc(-c3ccccc3)nn12 | 2%[46.1 µM] | -9% | -3%[46.1 µM] | -3%&-7% | ? | 7% | 2.2%&0.9% | 4%
C=CCNc1nc(C(=O)OCC(=O)Nc2cccc(SC)c2)cs1 | 14%[46.1 µM] | · | 9% | 15% | · | -1% | · | -15%
Cc1cccc(NC(=O)c2sc(-n3nc(C)c(Cc4ccc5c(c4)OCO5)c3C)nc2C)c1C | 0%[46.1 µM] | · | 6%[46.1 µM] | 5% | -7% | · | 1.1% | ·
CCN(CC)C(=O)CSc1nc(C)cc(C)n1 | ? | 3% | 2% | -4% | · | 1% | · | 5%
CC(C)(C)C(=O)Nc1nc(=S)ss1 | 1% | -47% | -5% | -23% | -13% | -14% | -2.7% | -16%
Cc1ccc(C)c(NC(=O)Cn2ncc3c(C)n(Cc4ccc(F)cc4)c(C)c3c2=O)c1 | -1%[46.1 µM] | · | 0%[46.1 µM] | -14% | 10% | · | -2.9% | ·
COc1cccc(OC(=O)c2cc3ccccc3oc2=O)c1 | 7%[46.1 µM] | · | 2% | 27% | · | -2% | · | ?
CC(/C=N/n1c(C2CCCCC2)n[nH]c1=S)=C\c1ccccc1 | ? | -28% | 18µM* | -20% | -13% | -18% | -6.5% | ?
Cc1noc(C)c1S(=O)(=O)N1CCC(C(=O)NC2CCCc3ccccc32)CC1 (stereo not given) | 4% | 5% | -2% | -13% | -10% | 2% | 1.2% | 0%
CCOc1cc(-c2cc(-c3ccc(OC)cc3)nc(N)c2C#N)ccc1O | -19% | -37% | ? | -10% | 3% | 6% | -8.0% | 5%
N#Cc1c(-c2ccccc2)nc(SCc2nc(N)nc(N3CCCCC3)n2)[nH]c1=O | -7%&2% | -35% | 12% | -3% | -9% | 1% | -5.8% | -13%
Cc1cccc(C)c1NC(=O)CNC(=O)c1c(C)nn(-c2ccccc2)c1C | -31% | · | -11% | 15% | · | -1% | · | -10%
O=C(NC(=S)Nc1ccc(CN2CCOCC2)cc1)c1ccccc1[N+](=O)[O-] | · | -5% | · | 9% | -7% | 22% | -3.7% | -5%
CCc1ccc(NC(=O)CSc2nc3ccsc3c(=O)n2C(C)CC)cc1 (stereo not given) | · | · | · | -32% | -1% | · | -1.8% | ·
COc1ccc(C(=O)NCc2ccccc2CN2CCCC2)cc1S(=O)(=O)N1CCOCC1 | -7% | · | 19% | -15% | · | -2% | · | -4%
Cc1ccc(Cn2ccnc2SCC(=O)Nc2ccc3c(c2)OCCO3)cc1 | · | · | -7%[46.1 µM] | 43%[activator] | -9% | · | -7.2% | ·
CCCS(=O)(=O)N1CCN(C(=O)c2cccnc2)CC1 | 6% | 6% | -7% | -1% | -2% | 8% | 1.3% | 13%
CCCN1CCN(C(=S)Nc2ccc3nc(N4CCN(CC)CC4)cc(C)c3c2)CC1 | ? | -3% | ? | -14% | · | 0% | · | 0%
Cc1ccc(NC(=O)CSc2ncccc2C(=O)Oc2ccccc2Cl)cc1Cl | · | · | 11%[46.1 µM] | 7% | ? | · | 0.2% | ·
Fc1ccccc1OCCCn1ccnc1 | · | 5% | · | 15% | · | 0% | · | -2%
CCOc1cc(CNCc2cccnc2)ccc1OCC(=O)NC(C)(C)C | 2% | 3% | 15% | -7% | · | 1% | · | -14%
CN(C)c1ccc(CNCc2cccnc2)cc1 | 3%[46.1 µM] | · | 5% | 5% | · | · | · | 5%
Cc1cc(C)cc(N(CC(=O)NCc2ccco2)C(=O)CCC(=O)Nc2nccs2)c1 | 0%[46.1 µM] | 0% | 2% | -20% | · | 0% | · | 4%
COc1ccc(NC(=O)CSc2nc3[nH]c(=O)[nH]c(=O)c3s2)cc1OC | ? | -1% | -3%[46.1 µM] | 4% | · | 1% | · | -2%
COc1ccc(Cn2c(CCC(=O)Nc3cccc(Cl)c3)nc3cccnc32)cc1 | 3%[46.1 µM] | · | 8%[46.1 µM] | -22% | -2% | · | -0.1% | ·
Cc1ccc(-c2onc(C)c2C)cc1S(=O)(=O)Nc1ccccn1 | · | · | -1%[46.1 µM] | 58%[activator] | 4% | · | -0.5% | ·
O=C(CN1C(=O)c2cccc([N+](=O)[O-])c2C1=O)OCC(=O)N1CCCCC1 | 4% | · | -4% | 20% | · | 0% | · | 6%
COc1cc(CN(C)Cc2cccc3ccccc23)cc([N+](=O)[O-])c1O | · | -2% | · | 2% | · | -3% | · | -1%
Cc1ccc2scc(N3CCCCC3)c(=O)c2c1 | · | · | 7%[46.1 µM] | -40% | -1% | · | -4.4% | ·
Cc1[nH]c2ccccc2c1CCN(Cc1cccnc1)C(=S)NC(C)(C)C | · | 3% | · | -3% | · | 1% | · | -18%
O=C(NCC(=O)N(c1ccccc1)C(C(=O)NC1CCCC1)c1ccncc1)c1cccs1 (stereo not given) | 5% | 10% | -1% | 27% | · | 7% | · | -7%
COc1cccc(NC(=O)CN(C)C(=O)CSCc2nc3scc(-c4cccs4)c3c(=O)[nH]2)c1 | 18% | · | 7% | -2% | · | · | · | 13%
Cc1ccc(-n2c(SCC(=O)Nc3ccc4c5c(cccc35)CC4)nc(O)cc2=O)cc1 | 3% | ? | 6% | -14% | 71% | ? | ? | 21%
COc1cccc(CNS(=O)(=O)c2cn(C)cn2)c1 | 13% | -2% | ? | -7% | -6% | 15% | 5.0% | -10%
Cc1cc(N2CCN(c3ccccc3)CC2)nc(N)n1 | 3% | -4% | -4% | -16% | 6% | -13% | 0.0% | -12%
O=C(O)CC(NC(=O)Nc1ccccc1)c1ccc(OC2CCCC2)cc1 (stereo not given) | -1%[46.1 µM] | · | -8%[46.1 µM] | 0% | · | 0% | · | -11%
CCOc1ccc(NC(=O)CSc2nc3ccccc3nc2N2CCOCC2)cc1 | ? | 10% | -2%[46.1 µM] | -17%&-20% | 11% | 4% | -2.1% | -3%
COc1cc(S(=O)(=O)N2CCCCC2)ccc1NC(=O)c1ccccc1Cl | -2% | -5% | -8% | 2% | -15% | 15% | -3.8% | 9%
O=C(CCc1nc(-c2ccc(F)cc2)no1)NCc1ccccc1CN1CCOCC1 | -34%[46.1 µM] | · | 16%[46.1 µM] | -19% | · | 4% | · | -4%
Cc1ccc(C2(O)CN(c3ccccc3C)C3=[N+]2CCS3)cc1 (stereo not given) | -14% | -5% | 12% | -22% | -1% | -6% | -0.3% | 2%
O=C(COC(=O)c1ccc(S(=O)(=O)NCc2ccco2)cc1)NC1CCCCC1 | -25%[46.1 µM] | 15% | -13% | 13% | ? | 9% | 12% | 21%
CCOc1cc(N2CCOCC2)c(OCC)cc1NC(=O)Cc1cccc2ccccc12 | ? | 13µM* | -24% | 6% | ? | 17% | -6.6% | 1%
COc1ccccc1NC(=O)C[n+]1ccccc1 | 4%[46.1 µM] | 5% | -4% | -4% | · | 0% | · | -3%
O=C(NCc1ccc(F)cc1)C1CC(=O)N(C2CCCC2)C1 (stereo not given) | 11% | · | 9% | -2% | · | -1%[6.58 µM] | · | 0%
COc1cc(-c2noc(-c3cc4cc(F)ccc4oc3=O)n2)cc(OC)c1OC | · | · | ? | 1% | 6% | · | 1.2% | ·
Cn1c(SCC(=O)Nc2ccccc2F)nnc1-c1cccs1 | -2%[46.1 µM] | 6% | · | 66%[activator] | · | 1% | · | 9%
CCN1CCN(c2cc(C)c3cc(NC(=S)N4CCCCC4)ccc3n2)CC1 | ? | 6% | ? | 33%[activator] | · | -3% | · | -19%
Cc1cc(C)cc(Oc2nc3ccccn3c(=O)c2/C=C(\C#N)c2nc3ccccc3s2)c1 | 30%[46.1 µM] | · | -10%[46.1 µM] | ? | 6% | · | -2.4% | ·
COc1ccc(S(=O)(=O)NCc2ccc(C(=O)NCCCN3CC(C)CC(C)C3)cc2)cc1 (stereo not given) | · | -2% | · | -13% | · | -7% | · | -4%
Cc1ccc(S(=O)(=O)NC(CC(=O)NCC2CCCO2)c2ccccc2)cc1 (stereo not given) | · | -2% | · | 13% | · | -1% | · | 2%
CC(=O)c1cccc(NC(=O)CCNC(=O)c2ccccc2Cl)c1 | -9%[46.1 µM] | 7% | 5%[46.1 µM] | -6% | · | 0% | · | -10%
CC(C)Cn1cc(NC(=O)N2CCN(c3cccc(Cl)c3)CC2)c2ccccc2c1=O | · | · | -1%[46.1 µM] | -18% | 3% | · | -6.8% | ·
COC(=O)Nc1nnc(Cc2ccc(Cl)cc2)s1 | 2% | -11% | 23% | 4% | -3% | -5% | -2.2% | -5%
CCN1C(=O)/C(=C\C(=O)c2cccs2)c2cc(Br)ccc21 | ? | · | ? | ? | · | -1% | · | 9%
Cc1ccc(S(=O)(=O)Nc2ccc3[nH]ccc3c2)cc1 | 21%[46.1 µM] | 6% | -3%[46.1 µM] | 36%[activator] | · | 0% | · | 11%
